# Polio RdRp inh: poliovirus RdRp elongation inhibitors, primary screen, biochemical, fluorescence polarization, total intensity; Genome polyprotein (Poliovirus type 1 (strain Mahoney)), P03300; poliovirus polymerase elongation; active compounds read low; % elongation, % (compound at 16.7 µg/mL); 150,000 compounds, 0.66% hits; AID 588519, 2011; in the data active = % elongation below about 90%; note: some results filed as inactive read as strong as hits
# Target sequence (P03300 1749-2209 limits assumed): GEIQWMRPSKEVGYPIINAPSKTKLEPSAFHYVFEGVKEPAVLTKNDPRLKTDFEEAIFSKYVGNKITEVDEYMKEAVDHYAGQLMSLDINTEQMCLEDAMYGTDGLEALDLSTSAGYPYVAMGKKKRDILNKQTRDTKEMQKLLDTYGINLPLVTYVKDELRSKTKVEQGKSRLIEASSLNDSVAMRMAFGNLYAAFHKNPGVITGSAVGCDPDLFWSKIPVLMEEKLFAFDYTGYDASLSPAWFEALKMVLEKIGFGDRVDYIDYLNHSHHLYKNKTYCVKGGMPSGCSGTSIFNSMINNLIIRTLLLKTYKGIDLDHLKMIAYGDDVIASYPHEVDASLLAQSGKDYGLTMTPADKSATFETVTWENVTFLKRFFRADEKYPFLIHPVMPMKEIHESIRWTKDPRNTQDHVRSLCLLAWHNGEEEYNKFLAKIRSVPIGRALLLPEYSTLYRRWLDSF
# Polio RdRp inh intensity: also measured in Polio RdRp inh; calls as there; % elongation; measured here: total intensity read-out; formula for this scale not given here;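 total fluorescence in place of polarization; lower means less elongation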
# The depositor's hits bear a star. Not all compounds are listed. The share of hits here may be higher or lower than overall.
No. | Structure | Polio RdRp inh | Polio RdRp inh intensity
1 | CCCOc1ccc(Oc2nc(NCC(C)C)nc(N3CCOCC3)n2)nn1 | 105 | 106
2 | COc1ccc(CNC(=O)c2cccn2-c2nnc(N3CCCC3)s2)c(OC)c1 | 106 | 112
3 | CCOC(=O)N1CCN(S(=O)(=O)N2CCCC(C(=O)NCc3ccc(OC)cc3OC)C2)CC1 (stereo unspecified) | 111 | 110
4 | O=C(c1ccc2c(c1)OCCO2)N(Cc1cccnc1)c1nc2c(Cl)cccc2s1 | 100 | 98
5 | Cc1nn2c(=O)cc(COC(=O)c3ccc(NC(=O)COc4ccc(Cl)cc4)cc3)nc2s1 | 112 | 104
6 | Cc1nn(CC(=O)NC2CC2)c(=O)c2cc3cc(F)ccc3n12 | 103 | 106
7 | CCCCOc1ccccc1C(=O)N(Cc1sccc1C)C1CCS(=O)(=O)C1 (stereo unspecified) | 120 | 119
8 | COCCCNC(=O)CCCN1C(=O)CCn2nc(-c3cccn3C)cc21 | 111 | 114
9 | Cc1ccc2c(c1)-c1c(cnc3cc(-c4ccccc4)nn13)CO2 | 107 | 110
10 | COc1cc(C(=O)OCc2cc(=O)n3nc(C(C)C)sc3n2)cc(OC)c1OC | 104 | 108
11 | O=C1NCCN(Cc2ccc(F)cc2)C1=O | 105 | 100
12 | Cn1c(=O)n(C)c2cc(N3CCOCC3)c(NS(=O)(=O)c3ccc(F)cc3)cc21 | 105 | 105
13 | CCCCc1nnc(SCc2cc(=O)c3cc(F)ccc3[nH]2)n1C | 110 | 111
14 | CCCOC(=O)c1c(NC(=O)C2c3ccccc3Oc3ccccc32)sc2c1CCCC2 | 103 | 102
15 | Cc1ccc(C(=O)c2oc3ccccc3c2NC(=O)C(C)Oc2ccccc2Cl)cc1 (stereo unspecified) | 106 | 107
16 | Cc1cccc(OCC(=O)Nc2cccc3cccnc23)c1C | 109 | 111
17 | Cc1ccc(Cn2c(=O)n(CCc3ccccc3)c(=O)c3c(C)c(C)sc32)cc1 | 106 | 108
18 | COC(=O)C1CCN(S(=O)(=O)c2cc3c4c(c2)C(C)C(=O)N4CCC3)CC1 (stereo unspecified) | 106 | 101
19 | COc1ccc(-c2nc(SCC(=O)Nc3ccc4c(c3)OCO4)c(-c3ccccc3)[nH]2)cc1 | 107 | 107
20 | CC(=O)N1CCCC1c1nc2ccccc2n1Cc1cccc(C)c1 (stereo unspecified) | 112 | 110
21 | CCN(CC)CCCNC(=O)Cn1nc(C)n2c(cc3sccc32)c1=O | 103 | 107
22 | COc1cc(NC(=O)CN2C(=O)CCc3cc(Br)ccc32)cc(OC)c1OC | 105 | 108
23 | Cc1cccc(CNC(=O)c2cnc3sc(N4CCCCC4)nn3c2=O)c1 | 108 | 93
24 | COc1ccccc1C(=O)Nc1cccc(C(=O)OCc2cc(=O)n3c4c(sc3n2)CCCC4)c1 | 99 | 102
25 | Cc1cccc(C(=O)NC(=O)Nc2ccc(-c3cc(C(F)(F)F)nn3-c3ccccc3)cc2)c1 | 108 | 104

# Reformatted with two lines to a compound: 24 of the compounds above.
# The line under a structure holds: Polio RdRp inh	Polio RdRp inh intensity
1. CCCOc1ccc(Oc2nc(NCC(C)C)nc(N3CCOCC3)n2)nn1
    105	106
2. COc1ccc(CNC(=O)c2cccn2-c2nnc(N3CCCC3)s2)c(OC)c1
    106	112
3. CCOC(=O)N1CCN(S(=O)(=O)N2CCCC(C(=O)NCc3ccc(OC)cc3OC)C2)CC1 (stereo unspecified)
    111	110
4. O=C(c1ccc2c(c1)OCCO2)N(Cc1cccnc1)c1nc2c(Cl)cccc2s1
    100	98
5. Cc1nn2c(=O)cc(COC(=O)c3ccc(NC(=O)COc4ccc(Cl)cc4)cc3)nc2s1
    112	104
6. Cc1nn(CC(=O)NC2CC2)c(=O)c2cc3cc(F)ccc3n12
    103	106
7. CCCCOc1ccccc1C(=O)N(Cc1sccc1C)C1CCS(=O)(=O)C1 (stereo unspecified)
    120	119
8. COCCCNC(=O)CCCN1C(=O)CCn2nc(-c3cccn3C)cc21
    111	114
9. Cc1ccc2c(c1)-c1c(cnc3cc(-c4ccccc4)nn13)CO2
    107	110
10. COc1cc(C(=O)OCc2cc(=O)n3nc(C(C)C)sc3n2)cc(OC)c1OC
    104	108
11. O=C1NCCN(Cc2ccc(F)cc2)C1=O
    105	100
12. Cn1c(=O)n(C)c2cc(N3CCOCC3)c(NS(=O)(=O)c3ccc(F)cc3)cc21
    105	105
13. CCCCc1nnc(SCc2cc(=O)c3cc(F)ccc3[nH]2)n1C
    110	111
14. CCCOC(=O)c1c(NC(=O)C2c3ccccc3Oc3ccccc32)sc2c1CCCC2
    103	102
15. Cc1ccc(C(=O)c2oc3ccccc3c2NC(=O)C(C)Oc2ccccc2Cl)cc1 (stereo unspecified)
    106	107
16. Cc1cccc(OCC(=O)Nc2cccc3cccnc23)c1C
    109	111
17. Cc1ccc(Cn2c(=O)n(CCc3ccccc3)c(=O)c3c(C)c(C)sc32)cc1
    106	108
18. COC(=O)C1CCN(S(=O)(=O)c2cc3c4c(c2)C(C)C(=O)N4CCC3)CC1 (stereo unspecified)
    106	101
19. COc1ccc(-c2nc(SCC(=O)Nc3ccc4c(c3)OCO4)c(-c3ccccc3)[nH]2)cc1
    107	107
20. CC(=O)N1CCCC1c1nc2ccccc2n1Cc1cccc(C)c1 (stereo unspecified)
    112	110
21. CCN(CC)CCCNC(=O)Cn1nc(C)n2c(cc3sccc32)c1=O
    103	107
22. COc1cc(NC(=O)CN2C(=O)CCc3cc(Br)ccc32)cc(OC)c1OC
    105	108
23. Cc1cccc(CNC(=O)c2cnc3sc(N4CCCCC4)nn3c2=O)c1
    108	93
24. COc1ccccc1C(=O)Nc1cccc(C(=O)OCc2cc(=O)n3c4c(sc3n2)CCCC4)c1
    99	102

# (next part)
No. | Structure | Polio RdRp inh | Polio RdRp inh intensity
26 | O=C(NCc1ccc(Cl)cc1)C1CCCN(C(=O)c2cnn(-c3ccc(F)cc3)c2-n2cccc2)C1 (stereo unspecified) | 103 | 106
27 | Cc1ccc(-n2ncc(C(=O)N3CCN(c4ccccn4)CC3)c2C2CCN(C(=O)OC(C)(C)C)CC2)cc1C | 101 | 105
28 | Cc1ccc2sc(N3CCN(C(=O)CCS(=O)(=O)c4ccc(F)cc4)CC3)nc2c1C | 97 | 105
29 | COc1ccc(CNC(=O)Cn2c(=O)ccc3cc(S(=O)(=O)N4CCCC4)ccc32)cc1 | 100 | 104
30 | CCOC(=O)c1ccc(NC(=O)Nc2cccc(OCc3cc(=O)n4ccc(C)cc4n3)c2)cc1 | 100 | 130
31 | O=c1cc(CN2CCN(S(=O)(=O)c3ccc(Cl)cc3)CC2)nc2sc(-c3ccccc3F)nn12 | 107 | 99
32 | CCCCN(CC)CCNC(=O)c1cc2c(-c3ccc(Cl)cc3)nn(C)c2s1 | 92 | 96
33 | O=C(CCSc1nc(-c2ccco2)cc(C(F)(F)F)n1)Nc1cccc(O)c1 | 104 | 96
34 | CCOC(=O)C1CCCN(c2nc3c(S(=O)(=O)c4ccc(CC)cc4)nnn3c3ccsc23)C1 (stereo unspecified) | 102 | 102
35 | CCN(CC)c1ccc(CN(C(=O)c2cc(=O)c3ccccc3o2)C2CCS(=O)(=O)C2)cc1 (stereo unspecified) | 106 | 113
36 | COc1ccc(OCCCCn2c(-c3ccc(Cl)cc3)nc3ccccc3c2=O)cc1 | 103 | 106
37 | COc1ccc(NC(=O)c2sc3nc4c(c(-c5ccc(OC)cc5)c3c2N)C(=O)CC(C)(C)C4)cc1 | 108 | 116
38 | COc1ccc2oc(-c3ccc(C)c(NC(=O)c4sc5ccccc5c4Cl)c3)nc2c1 | 102 | 107
39 | COc1ccc(-n2c(-c3ccccc3F)nc3c(cnn3-c3ccc(C)cc3)c2=O)cc1 | 107 | 109
40 | CCOc1ccc(C2N3CC4(C(C)C)CN2CC(C(C)C)(C3)C4=O)cc1OC (stereo unspecified) | 110 | 110
41 | CCN(C(=O)CSc1nc2ccccc2c2nc(CCn3c(C)nc4ccccc43)nn12)c1cccc(C)c1 | 115 | 110
42 | O=C(Cc1ccc(NC(=O)N2CCCCc3ccccc32)cc1)Nc1ccccc1Br | 102 | 106
43 | Cc1ccc(C)c(N2CCN(C(=O)c3cn(CC(C)C)c(=O)c4c3c3ccccc3n4C)CC2)c1 | 106 | 108
44 | CC1=C(C(=O)Nc2ccccc2)C(C(C)C)n2nc(SCc3ccccc3C)nc2N1 (stereo unspecified) | 112 | 106
45 | CCc1cccc(NC(=O)C(Cc2ccccc2)NS(=O)(=O)c2ccc3c(c2)oc(=O)n3C)c1 (stereo unspecified) | 107 | 102
46 | CCOc1ccc(NC(=O)c2oc3ccccc3c2NC(=O)Cc2cccc(C)c2)cc1 | 105 | 109
47 | Cn1c(SCC(=O)N2CCCc3ccccc32)ncc(C(=O)Nc2ccc(Cl)cc2)c1=O | 100 | 106
48 | O=C(CN1N=C(c2ccc(Cl)cc2)CCC1=O)NCc1ccc(F)cc1 | 106 | 109
49 | COc1ccc(-c2nnc(SCC(=O)NCCC(C)C)nc2-c2ccc(OC)c(OC)c2)cc1OC | 108 | 112
50 | Cc1nn(-c2ccc(N3CCCC3)nn2)c(C)c1CCC(=O)N1CCN(c2ccc(F)cc2)CC1 | 120 | 112
51 | CCCCCC(=O)N(c1ccc(OCC)cc1)S(=O)(=O)c1ccc2c(c1)n(C)c(=O)n2C | 103 | 87
52 | O=C(Nc1cc(-c2nc3cc(Cl)ccc3o2)ccc1Cl)c1cc2ccccc2o1 | 104 | 109
53 | Cc1ccc(Cn2c(=O)n(-c3ccccc3)c(=O)c3ccc(C(=O)NCc4ccco4)cc32)cc1 | 104 | 103
54 | CCC(Cn1nnc2ccccc2c1=O)NC(=O)Nc1cccc(C)c1C (stereo unspecified) | 110 | 110
55 | COc1ccc(CCNC(=O)C2CCN(c3nc4ccccc4nc3C(F)(F)F)CC2)cc1OC | 115 | 114
56 | CCCCOc1cccc(C(=O)N(Cc2ccc(Br)o2)C2CCS(=O)(=O)C2)c1 (stereo unspecified) | 102 | 101
57 | Cc1cc(C)c(Nc2nn3c(=O)c4cc5c(cc4nc3s2)OCO5)c(C)c1 | 87* | 84*
58 | CCOC(=O)c1cc(-c2ccc(F)cc2)n(CC(=O)NC2CCCCC2)c1C | 104 | 114
59 | Cc1ccc(C(=O)n2nc(C)c(S(=O)(=O)N3CCOCC3)c2C)cc1C | 100 | 104
60 | CCc1cccc(C)c1NC(=O)Cn1c(=O)n(-c2cccc(C)c2)c(=O)c2c1c1cc(C)ccc1n2C | 108 | 114
61 | Cc1ccc(N2CCN(c3nc4ccc(C)cc4n4nnnc34)CC2)c(C)c1 | 115 | 120
62 | Cc1ccc2c(c1)N(C(=O)CCC(=O)NCc1ccccc1F)CC(C)O2 (stereo unspecified) | 104 | 88
63 | Cc1ccc(NC(=O)c2c(C)oc3c2C2=NCCN2C=N3)cc1F | 102 | 104
64 | COc1cc(Cl)c(C)cc1NC(c1ccccc1)c1nnc(-c2ccccc2Cl)o1 (stereo unspecified) | 106 | 107
65 | COc1ccc2c(c1)c1c(c(=O)n(-c3ccc(OC)c(OC)c3)c(=O)n1Cc1ccc(F)cc1)n2C | 106 | 112
66 | Cc1c(C(=O)Nc2cccc(C(F)(F)F)c2)sc2nc3n(c(=O)c12)CCC3 | 106 | 106
67 | CNc1nc(Oc2ccc(=O)[nH]n2)nc(N2CCOCC2)n1 | 104 | 103
68 | COc1ccc(CNC(=O)c2c(O)nc3c(C)cccn3c2=O)cc1 | 107 | 111
69 | O=C(NCCCc1ccccc1)c1nn(-c2ccccc2F)nc1CO | 103 | 100
70 | CCc1ccc(NC(=O)C2CCN(c3ccc(Sc4ccc(C)cc4)nn3)CC2)cc1 | 108 | 112
71 | C=CCC(CC=C)(CNC(=O)C(=O)Nc1ccc(Br)cc1)c1ccc(OC)c(OC)c1 | 106 | 108
72 | CCCc1nn2c(C)c(-c3ccccc3)nc2s1 | 107 | 104
73 | Cc1ccc(-c2nc(NC(=O)CSc3nc(C)nc4sc5c(c34)CCCC5)ns2)cc1 | 103 | 103
74 | O=C(Nc1c(C(=O)N2CCN(c3ccccc3F)CC2)oc2ccccc12)c1ccco1 | 101 | 109
75 | CCCN(CCC)CCCNC(=O)C1CCCN(S(=O)(=O)c2cccc3nsnc23)C1 (stereo unspecified) | 110 | 111

# Next part.
No. | Structure | Polio RdRp inh | Polio RdRp inh intensity
76 | COc1ccc(CN2C(=O)c3ccccc3C2C(=O)NC2CCCCCC2)c(OC)c1 (stereo unspecified) | 105 | 108
77 | O=C(Cc1ccccc1)N(Cc1cccnc1)c1nc2c(F)cc(F)cc2s1 | 105 | 108
78 | CCOc1ccc(C(=O)Nc2ccc(C(=O)OCc3cc(=O)n4nc(CC)sc4n3)cc2)cc1 | 103 | 109
79 | Cc1ccc(Cl)cc1N1CCN(C(=O)c2cc3c(=O)n(C)c4ccccc4c3s2)CC1 | 106 | 108
80 | CCN1CCN(C(c2ccc(F)cc2)c2sc3nc(-c4ccco4)nn3c2O)CC1 (stereo unspecified) | 114 | 102
81 | CCCC(=O)Nc1ccc2nc(SCC(=O)N3CCOCC3)sc2c1 | 112 | 116
82 | CCc1ccc(OCC(=O)Nc2ccc(Cl)c(-c3nc4ncccc4o3)c2)cc1 | 109 | 113
83 | O=C(NCCc1ccccc1)c1ccc(CS(=O)Cc2ccc(Cl)cc2)o1 (stereo unspecified) | 109 | 104
84 | Cc1nn(-c2ccccc2)c2sc(C(=O)Nc3ccc(Br)cc3)cc12 | 106 | 112
85 | CCN(CC)C(=O)Cn1cc(SCC(=O)Nc2cc(OC)ccc2OC)c2ccccc21 | 111 | 113
86 | COC(=O)Cc1c(C)c2ccc3c(c2oc1=O)CN(Cc1ccc(Cl)cc1)CO3 | 104 | 107
87 | O=S(=O)(c1ccc2nc(NCc3ccccc3Cl)ccc2c1)N1CCCCC1 | 107 | 107
88 | COc1cc(NC(=O)c2ccc(-c3nc(COc4ccccc4)c(C)o3)cc2)cc(OC)c1 | 110 | 112

# From PubChem BioAssay
